gsp agonist – gsp mutant agonism; gsp mutant cells, cAMP HTRF, 30 min; control for the full effect not named in the record; Potency, µM (doses to about 76.9 µM), for the others: at the highest dose activation (cAMP increase), actives largely listed as activators; 340,000 tested, 0.13% active; AID 624287; active = well fitted activation curve with a large enough effect; inconclusive = small, poorly fitted or top-dose-only effect, or another doubt; inactive = no such curve, though single readings can be large or run the other way; cell line not stated here;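 further: phosphodiesterase inhibitor Ro 20-1724 added with compounds to block cAMP breakdown; potency means the concentration at half of the fitted maximal effect; nearly all actives have a fitted effect of over 60% in size; about a fifth of the inactives were tested at one dose only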
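Cells stably selected in G418 were plated at 2000/well, grown 16-24 hr, then given compounds in DMSO with the PDE inhibitor […] (300 uM solution added) for 30 min at 37C; cAMP was read by HTRF.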
D2 PAM – human D2 receptor positive allosteric modulation; AID 624464; potentiation, % (test concentration not listed); P14416; DiscoveRx D2 beta-arrestin cells, luminescence, 90 min; 100% = 57 uM dopamine signal; 360,000 tested, 0.23% active; active = potentiation of 50% or more; inconclusive = 30% to 50%; inactive = 30% or less;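 further: compound concentration not given in the record; tested on top of an EC20 dose of dopamine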
Target sequence (P14416 whole entry, looked up): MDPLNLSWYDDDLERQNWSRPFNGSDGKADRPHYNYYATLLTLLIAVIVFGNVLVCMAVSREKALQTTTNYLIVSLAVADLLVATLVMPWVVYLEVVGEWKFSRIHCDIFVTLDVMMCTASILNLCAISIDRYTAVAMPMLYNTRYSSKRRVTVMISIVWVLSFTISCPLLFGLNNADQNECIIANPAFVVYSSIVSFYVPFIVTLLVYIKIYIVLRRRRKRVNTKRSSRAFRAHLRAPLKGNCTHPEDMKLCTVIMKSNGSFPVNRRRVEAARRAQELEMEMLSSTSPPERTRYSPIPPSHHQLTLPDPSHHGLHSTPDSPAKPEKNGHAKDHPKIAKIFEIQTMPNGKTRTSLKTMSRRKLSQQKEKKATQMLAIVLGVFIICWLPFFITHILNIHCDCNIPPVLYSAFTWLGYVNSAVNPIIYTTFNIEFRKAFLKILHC
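D2 cells co-treated with compound plus 50 nM dopamine (EC20) for 90 min at 37 deg C to detect potentiation. Beta-arrestin recruitment was read as enzyme-fragment luminescence after 1 h at ambient temperature. Full response was set by 57 uM dopamine.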
TRPV1 PAM – potentiators of human vanilloid receptor 1 (TRPV1); TRPV1-expressing cells, Fluo-8 calcium influx, capsaicin EC20 potentiation; host cell line not named in the record; control for the full effect not named in the record; potentiation, % at 8.33 µM; 320,000 tested, 0.02% active; AID 540277; active means potentiation above 80%; inconclusive means 30% to 80%; inactive means below 30%; further: 0% is about no effect
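TRPV1-expressing cells were cultured overnight at 35.5C and loaded with Fluo-8 calcium dye for 40 to 90 min at room temperature. After a 10 s baseline, compound was added and calcium influx was read kinetically for 3 min (ex 480/em 520 nm).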
Menin-MLL FL inh – inhibitors of human menin-MLL interaction, wild-type MLL peptide; Fluorescence polarization, fluorescein-MLL peptide displacement from menin; FP activity change, % at 61.4 µM; 290,000 tested, under 10 active; AID 1766; inconclusive = falling polarisation curve, or a change in total fluorescence; inactive = total fluorescence flat and polarisation flat or rising; no compound was filed as active; the % refers to the polarisation; negative = inhibition;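 further: % of control where 0% means no effect; inhibitors lower the polarisation; unlabelled MLL peptide was the positive control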
Sfp PPTase inh – blocks B. subtilis Sfp PPTase activity; Q9F4F7; Biochemical Sfp PPTase activity, qHTS; Potency, µM, without a hit: max response, negative = inhibition, hits mostly inhibitors; 310,000 tested, 3.5% active; active means well fitted inhibition curve with a large enough effect; inconclusive means small, poorly fitted or top-dose-only effect, or another doubt; inactive means no such curve, though single readings can be large or run the other way;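 further: the enzyme is Sfp with the accession as filed and its product quenches rhodamine fluorescence; potency means the concentration at half of the fitted maximal effect; 0% = enzyme reaction without inhibitor and -100% = no enzyme wells; top concentration of the series not given in the record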
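Compounds were incubated with enzyme (final 15 nM) for 15 min at room temperature before substrate addition started the reaction. Fluorescence at 525 nm excitation, 598 nm emission was recorded immediately and after 30 minutes.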
gsp antag – antagonizes gsp, the McCune-Albright syndrome mutation; 340,000 tested, 0.4% active; Potency, µM (highest dose often 76.9 µM), without a hit: at the top dose activity change, negative = inhibition, most hits filed as inhibitors; gsp-mutant cells, cAMP HTRF, 30 min; control for the full effect not named in the record; AID 624288; active = falling curve of any shape with a large fitted effect; inconclusive = falling curve, mostly with a smaller effect; inactive = flat or rising curve; cell line not stated here;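 further: intracellular cAMP measured with PDE inhibitor Ro 20-1724 present during compound exposure; potency means the concentration at half of the fitted maximal effect; on the % scale 0 is the no-effect control and ±100 the full control effect; nearly all actives have a fitted effect of over 65% in size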
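HTRF cAMP measurement after 30 min RT detection following 30 min, 37C compound treatment alongside […] (added as 300 uM solution) in G418-selected cells seeded at 2000/well and grown 16–24 h.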
ClpP mod – qHTS Assay for Activators of ClpP; ATP-dependent Clp protease proteolytic subunit (Bacillus subtilis (strain 168)), P80244; purified B. subtilis ClpP, FRET peptide cleavage, 20 min; Potency, µM (series often up to 57.5 µM), inactives show at the highest dose activity change, negative = active; 340,000 tested, 1.9% active; AID 651965, 2013; active = well fitted falling curve with a large enough effect; inconclusive = small, poorly fitted or top-dose-only effect; inactive = no such curve, though single readings can be large or run the other way; further: potency means the concentration at half of the fitted maximal effect; the source files actives as falling curves though it sought activators and does not explain the sign; nearly all actives have a fitted effect of over 65% in size; many hits overshoot -100%
Target sequence (P80244 whole entry, looked up): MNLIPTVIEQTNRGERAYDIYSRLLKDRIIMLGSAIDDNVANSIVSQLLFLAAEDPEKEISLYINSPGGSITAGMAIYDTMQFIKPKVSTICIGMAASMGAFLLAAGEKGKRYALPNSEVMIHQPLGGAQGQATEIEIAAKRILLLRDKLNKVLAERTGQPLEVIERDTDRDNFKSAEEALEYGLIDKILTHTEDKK
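Buffer: 100 mM Tris/HCl pH8, 100 mM KCl, 0.05% low protease BSA, 2.5% glycerol, 0.01% Tween-20. ClpP 10 microg/mL final; 20 min RT; delta FRET normalized to ADEP and DMSO controls.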
* marks the source's active call; other numbers are inactive results; ? = inconclusive; . = no result given; & = joins results of further samples; [ ] = another dose, or the depositor's remark.

SMILES,gsp agonist,D2 PAM,TRPV1 PAM,Menin-MLL FL inh,Sfp PPTase inh,gsp antag,ClpP mod
COC(=O)C(C(=O)OC)C(C[N+](=O)[O-])c1ccc(O)c(OC)c1 (stereo unspecified),-9%[15.4 µM],1,-11,1.3,-9%,13%,-1.2%
CCOC(=O)Cc1[nH]nc2c1C(c1cc(OC)ccc1OC)C(C#N)=C(N)O2 (stereo unspecified),-43%[inhibitor],17,6,0.5,1%,2%,-1.6%
Cc1ccc(C(=O)O)cc1NC(=S)NC(=O)c1ccc([N+](=O)[O-])c(C)c1,-34%[inhibitor],-8,-1,3.6,?,-30%,-0.9%
COc1ccc(NC(=O)c2cc(C)no2)cc1OC,13%,-5,2,0.4,14%,4%,.
O=C(COc1ccc2c3c(c(=O)oc2c1)CCCC3)NC(Cc1ccc(Cl)cc1)C(=O)O (stereo unspecified),.,-20,-4,-2.6,17%,5%,4.7%
Cc1ccc(N2CCN(S(=O)(=O)c3nnc(NC(=O)c4ccco4)s3)CC2)cc1,2%,-3,11,-2.0,-8%,-27%,-5.7%
COc1ccc(-c2nn(-c3ccccc3)cc2C(=O)N(C)CC(=O)Nc2cccc(F)c2)cc1,?,-22,-7,.,.,?,-5.8%
COc1ccc(Cn2c(SCC#N)nc3ccc(N4CCOCC4)cc3c2=O)cc1,-4%[15.4 µM],5,0,-5.1,9%,4%,.
COc1ccc(-c2cc(C(=O)N3CCN(c4ccccc4)CC3)c3ccccc3n2)cc1OC,-15%,11,3,2.5,6%,-9%,?
COc1ccc(C(=O)NCCNc2ccccc2[N+](=O)[O-])cc1,-23%,-4,0,-6.5,9%,-4%,0.7%
Cc1ccc(N2CCN(C(=S)c3ccc(N(C)C)cc3)CC2)cc1,0%,-30,2,8.7,20µM*,-16%,-6.3%
COc1ccc(OC)c(-n2c(=S)[nH]c3cc(C(=O)N(C)Cc4ccccc4)ccc3c2=O)c1,-23%,-13,?,-0.7,8%,0%,0.7%
Cc1cc(NC(=O)CCSc2ccccc2)ccc1Br,2%,-33,5,10.0,7%,?,-22%
O=C(NCCN1CCOCC1)c1cnn2c1NC(c1cccs1)CC2C(F)(F)F (stereo unspecified),4%[15.4 µM],-10,19,1.1,5%,-1%,.
O=C(NCCN1CCN(c2ccccc2F)CC1)C1CCCN(S(=O)(=O)c2cnc[nH]2)C1 (stereo unspecified),2%,67*,6,2.1,-11%,3%,-6.9%
COc1c(S(=O)(=O)NCCCn2ccnc2)ccc(Cl)c1Cl,-10%,-2,4,-0.5,3%,7%,0.5%
Cc1ccc(/C=N/N(Cc2ccccc2)c2ccccc2)o1,-14%,-3,-2,0.0,?,-3%,0.2%
N#C/C(=C\c1c(N2CCC(C(N)=O)CC2)nc2ccccn2c1=O)C(=O)NC1CCCCC1,?,-1,-10,.,21%,-2%,-4.3%
O=C(COC(=O)c1c[nH]c(=O)[nH]c1=O)Nc1ccccc1F,8%[15.4 µM],8,8,-1.3,71µM*,1%,.
COc1ccccc1Nc1nc2ccccc2n1C,-31%[inhibitor],-8,25,-1.3,16%,6%,-3.4%
O=C1CCCC(=NNC(=O)c2cc3ccccc3cc2O)C1,?,-7,.,.,.,-3%,-2.7%
Cn1nnnc1Sc1c(Cl)cccc1[N+](=O)[O-],-6%[15.4 µM],7,1,1.0,19%,7%,.
C[C@@]12C(=O)Nc3ccc(F)cc3C(=O)N1[C@H]1c3ccccc3OC[C@@H]1[C@@H]2c1ccccc1,12%,-4,.,.,.,-9%,-11%
O=C(CN1CCC(NC(=O)Nc2ccccc2)CC1)Nc1ccccc1F,-8%,-1,-27,-0.3,7%,-2%,.
Cc1ccc(S(=O)(=O)c2cnc(-c3ccccc3)nc2N2CCCCC2)cc1,3%,-13,2,1.0,-26%,-7%,-1.8%
C=CCn1c(SCC(=O)Nc2sc3c(c2C#N)CCC3)nnc1C1COc2ccccc2O1 (stereo unspecified),0%,-4,?,-1.0,-4%,-13%,-0.3%
CCOc1ccccc1N(C(=O)CNC(=O)c1ccco1)C(C(=O)NC1CCCC1)c1ccncc1 (stereo unspecified),-9%[15.4 µM],-2,13,-5.6,-4%,7%,1.5%
CCOC(=O)Cc1c[nH]c(=S)[nH]c1=O,3%[15.4 µM],-3,11,3.7,79µM*,6%,.
Cc1scc(C(=O)NNC(=S)NCC(C)C)c1C,5%,-25,-5,2.3,9%,5%,-25%
Cc1cccc(C(=O)NCc2nnc3c4ccccc4c(-c4ccccc4)nn23)c1,10%[15.4 µM],-1,2,2.0,8%,3%,.
CN1c2ccsc2/C(=N/NC(=O)c2c(F)cccc2F)CS1(=O)=O,-4%,0,-2,15,-6%,-6%,1.3%
CCN(Cc1cnn(C)c1)C(=O)c1ccc2nc(Cc3ccccc3F)oc2c1,-50%,9,.,.,.,.,0.5%
CCN(CC)C(=O)CSc1nnc2cc(C)c3ccccc3n12,-17%,-9,-6,-0.8,4%,1%,-15%
N#C/C(=C\c1ccc(Sc2nc3ccccc3[nH]2)o1)c1ccccc1,-2%,-15,-7,?,8%,?,-12%
Cc1ccc2nc(-c3ccncc3)cc(C(=O)Nc3ccncc3)c2c1,?,0,-3,-1.2,6%,-20%,-6.4%
Cc1onc(-c2ccccc2)c1C(=O)OCCOc1ccc([N+](=O)[O-])cc1[N+](=O)[O-],7%[15.4 µM],11,8,-3.1,0%,-12%,-2.3%
CC1(C)Cc2cccc(C(=O)Nc3ccc(F)cc3F)c2O1,-29%,-1,-5,0.6,5%,-2%,-4.1%
COC(=O)c1ccc(N2CCOCC2)c(NC(=O)c2cccs2)c1,6%,2,-8,-3.4,1%,-1%,-4.6%
CC(NC(=O)C(=O)c1cn(CC(=O)N2CCOCC2)c2ccccc12)c1ccccc1 (stereo unspecified),-22%,-6,-2,.,14%,-1%,-0.5%
Cc1cc(OCC(=O)O/N=C(\N)c2ccccc2)ccc1Cl,-4%,-11,30,1.2,-9%,6%,-2.1%
COc1ccc(S(=O)(=O)N2CCOCC2)cc1NC(=O)COC(=O)C1CCC1,1%,-6,7,.,.,11%,35µM*
CCC(C)N=Cc1c(Nc2ccccc2)nc2c(C)cccn2c1=O (stereo unspecified),-4%,-12,-5,-1.7,-22%,?,5.5%
Cn1c(SCC(=O)NC2CCCC2)nnc1-c1cccs1,?,-2,-6,27,12%,3%,.
COc1cccc(OCC(=O)Nc2ccncc2)c1,-67%[inhibitor],2,-21,6.7,27%,0%,.
CCN(CC)CCNC(=O)C(=O)Nc1ccc2c(c1)N(S(=O)(=O)c1cccs1)CCC2,-20%[15.4 µM],-8,-3,.,.,17%,.
CCOC(=O)N1CCN(C(=O)c2cccc(F)c2)CC1,-18%,-3,3,1.6,27%,-1%,-0.7%
CC1=NN(c2ccc(Br)cc2)C(=O)/C1=C/c1cccs1,20%,-17,?,17,-4%,?,-1.2%
CCOc1ccc(N(CC(=O)NCc2ccc(OC)cc2)C(=O)CCC(=O)Nc2nccs2)cc1,-9%[15.4 µM],-13,10,10,17%,-3%,-1.0%
CC(=O)N(c1ccccc1C)c1ccccc1C,-18%,-2,.,.,.,6%,.
O=C(Cn1ncc2c1-c1ccccc1OC2)N1CCN(c2ccccn2)CC1,-42%[inhibitor],-10,5,-2.8,8%,-6%,4.0%

Other structures.
SMILES,gsp agonist,D2 PAM,TRPV1 PAM,Menin-MLL FL inh,Sfp PPTase inh,gsp antag,ClpP mod
CCCOc1cccc(C(=O)Nc2ccc(Br)cc2F)c1,-3%[15.4 µM],-12,-4,3.2,8%,3%,5.3%
CCOC(=O)C(C)Sc1snnc1C (stereo unspecified),-3%,-2,.,.,.,6%,-2.0%
CCOc1cc(/C=C/C(=O)O)ccc1OCc1ccccc1,18%[15.4 µM],-17,-1,0.1,7%,-10%,0.8%
CCOc1cc(/C=C2\SC(N3CCCC(C)C3)=NC2=O)ccc1O (stereo unspecified),17%[15.4 µM],-14,-1,?,8%,-19%,.
CCN(CC(=O)Nc1c(F)cccc1F)C(=O)C1CCCO1 (stereo unspecified),-22%,1,.,.,.,.,0.7%
O=C(CN(Cc1ccc(F)cc1)C(=O)C1CSC(=O)C1)NC1CCCCC1 (stereo unspecified),-32%[inhibitor],-5,-7,-1.2,14%,-7%,0.0%
CCCCCCN(CCCCCC)C(=O)Cc1c(-c2ccc(F)cc2)[nH]c2ccccc12,.,-1,2,?,24%&20%,-4%,4.9%
CN1CCN(S(=O)(=O)c2cccc(C(=O)NC3CCCC3)c2)CC1,13%[15.4 µM],-1,0,.,.,-8%,-2.6%
c1ccc2oc(-c3csc(N4CCOCC4)n3)cc2c1,0%[15.4 µM],-1,3,8.2,56µM*,-1%,0.0%
CC(=O)NC1C(=O)N=C(SC(C)C(=O)Nc2cccc(Cl)c2)NC1=O (stereo unspecified),-32%[inhibitor],2,15,-4.0,-2%,13%,.
CCOC(=O)N1CCN(C(=O)Nc2ccc(Cl)cc2Cl)CC1,1%,-22,-12,4.4,9%,5%,-0.3%
CCOC(=O)c1ccc(NC(=O)[C@@H](NC(N)=O)C(C)C)cc1,16%,-3,28,7.5,16%,8%,.
CC(CC(=O)NCc1ccco1)S(=O)(=O)c1ccc2c(c1)CCN2C(=O)C1CC1 (stereo unspecified),19%,0,3,.,3%,3%,-0.6%
CC(C)(C)c1ccc(OC(=O)N2CCOCC2)cc1,-42%[inhibitor],-3,-34,.,6%,3%,-2.0%
CCOC(=O)N1CCN(CC(=O)Nc2ccccc2C(=O)Nc2ccccc2)CC1,-3%,-8,-5,.,.,-18%,-0.1%
CC(=O)c1cccc(-n2nnnc2SCC(=O)Nc2cc(C)on2)c1,-23%,-11,14,.,1%,-5%,.
O=C(COC(=O)c1ccccc1C(=O)c1ccccc1)c1ccco1,?,-3,4,0.4,10%,-4%,0.1%
COc1ccc(S(=O)(=O)NCCC(C)C)cc1C,-18%,-5,-17,1.2,18%,-5%,-1.4%

Compound activity as filed in PubChem BioAssay.
